# From PubChem BioAssay
# Cruzain inh Det – inhibitors of Trypanosoma cruzi cruzain with detergent; P25779; purified cruzain, Z-FR-AMC fluorescence, 0.01% Triton; Potency, µM, inactives show max response, negative = inhibition, actives largely listed as inhibitors; 0.43% of 200,000 active; AID 1478; active = well fitted curve in the direction sought with a large enough effect; inconclusive = small, poorly fitted or top-dose-only effect, or another doubt; inactive = no such curve, though single readings can be large; an effect the other way counts as inactive or inconclusive;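 note: plate controls were neutral wells for no effect and buffer without enzyme for full effect; nearly all actives have a fitted effect of over 40% in size; top concentration of the series not given in the record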
# Target sequence (P25779 123-467 limits assumed): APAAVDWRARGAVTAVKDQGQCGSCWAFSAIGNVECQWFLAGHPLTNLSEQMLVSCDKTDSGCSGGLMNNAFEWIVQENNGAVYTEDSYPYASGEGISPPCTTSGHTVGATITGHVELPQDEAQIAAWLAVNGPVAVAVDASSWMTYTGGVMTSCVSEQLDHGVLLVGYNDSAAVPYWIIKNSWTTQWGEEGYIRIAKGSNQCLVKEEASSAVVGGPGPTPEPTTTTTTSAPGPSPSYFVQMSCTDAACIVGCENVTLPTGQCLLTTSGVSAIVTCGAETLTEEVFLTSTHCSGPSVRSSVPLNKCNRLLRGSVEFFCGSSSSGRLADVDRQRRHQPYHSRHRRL
#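 Cysteine protease activity tested under reducing, mildly acidic conditions (100 mM sodium acetate pH 5.5, 5 mM DTT) plus 0.01% Triton X-100. Cruzain 1.5 nM; substrate Z-FR-AMC 2 uM; 15 min compound preincubation at room temperature.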
# Lassa entry inh – Lassa virus entry inhibition; Lassa virus pseudotype entry inhibition, cell reporter; control for the full effect not named in the record; 1.2% of 300,000 active; AID 540256; Potency, µM (series often up to 37.9 µM), without a hit: at the highest dose activity change, negative = inhibition, usual class: inhibitors; active means well fitted inhibition curve with a large enough effect; inconclusive means small, poorly fitted or top-dose-only effect, or effect the other way; inactive means flat fitted curve, though single readings scatter; tested in HEK293 cells; note: % is set by controls: 0 for no effect and ±100 for the full control effect; nearly all actives have a fitted effect of over 50% in size; luciferase read-out
# Cruzain noTriton – cruzain (T. cruzi) inhibition without detergent. P25779. purified cruzain, Z-FR-AMC fluorescence, no detergent. Potency, µM, without a hit: max response, negative = inhibition, most hits filed as inhibitors. 2.3% of 200,000 active; active = well fitted curve in the direction sought with a large enough effect; inconclusive = small, poorly fitted or top-dose-only effect, or another doubt; inactive = no such curve, though single readings can be large; an effect the other way counts as inactive or inconclusive;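 note: plate controls were enzyme without inhibitor for no effect and buffer without enzyme for full effect; nearly all actives have a fitted effect of over 40% in size; top concentration of the series not given in the record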
#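 Purified cruzain at 1.5 nM, pre-incubated 15 min with compound at room temperature in 100 mM sodium acetate pH 5.5, 5 mM DTT, 0.00005% Triton X-100. Reaction started with 2 uM Z-FR-AMC; AMC fluorescence increase over 60 s gives rate.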
# Marburg entry inh – blocks Marburg virus binding to or entry into cells; Marburg virus pseudotyped entry inhibition, cell reporter; control for the full effect not named in the record; about a third of the inactives were read at about 46 µM; Potency, µM (doses to about 37.8 µM), without a hit: at the highest dose activity change, negative = inhibition, actives largely listed as inhibitors; 1.8% of 300,000 active; AID 540276; active = well fitted inhibition curve with a large enough effect; inconclusive = small, poorly fitted or top-dose-only effect, or effect the other way; inactive = flat fitted curve, though single readings scatter; tested in HEK293 cells; about a fifth of its hits are not listed in these tables; note: % is set by controls: 0 for no effect and ±100 for the full control effect; luciferase read-out
# SARS PLpro yeast – SARS-CoV PLP inhibition in yeast | S. cerevisiae expressing SARS-CoV PLpro, growth rescue; control for the full effect not named in the record | Potency, µM (highest dose often 32.9 µM), for the others: at the top dose activity, positive = growth rescue | 0.19% of 330,000 active | AID 485353; note: 0% is about no effect; nearly all actives have a fitted effect of over 55% in size; growth read by luminescence after 48 h
# StopGo reporter – lowers the luciferase signal of an FMDV 2A StopGo reporter; human cells with a luciferase reporter of 2A StopGo recoding; control for the full effect not named in the record; Potency, µM (highest dose often 57.9 µM), for inactives: at the top dose signal change, negative = less light; 1.2% of 410,000 active; AID 1159524; active = well fitted falling curve with a large enough effect; inconclusive = small, poorly fitted or top-dose-only effect; inactive = no such curve, though single readings can be large or run the other way; tested in HEK293T cells; note: % is set by controls: 0 for no effect and ±100 for the full control effect; nearly all actives have a fitted effect of over 45% in size; luciferase light after 4 h
# RE007 growth inh – less growth of the S. pombe RE007 Vpr strain; 0.21% of 360,000 active; AID 651644; Potency, µM (series often up to 92.2 µM), for the others: top-dose activity change, negative = less growth; S. pombe RE007 Vpr strain, BacTiter-Glo ATP luminescence, 24 h; control for the full effect not named in the record; active = well fitted falling curve with a large enough effect; inconclusive = small, poorly fitted or top-dose-only effect; inactive = no such curve, though single readings can be large or run the other way;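 note: % is set by controls: 0 for no effect and ±100 for the full control effect; nearly all actives have a fitted effect of over 50% in size; the assay follows cell death caused by Vpr and the record does not say whether a fall means rescue or toxicity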
#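 Fission yeast RE007 carrying one integrated HIV-1 vpr copy, seeded at OD 0.01 in PMG+AL medium with 23 nL pinned compound. Grown 24 h at 30 degrees; viability read by BacTiter-Glo luminescence after 5 min.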
# NS1 function inh – inhibitors of influenza NS1 protein function. AID 2326. 0.4% of 270,000 active. S. cerevisiae slowed by influenza A NS1, growth recovery by OD600. Potency, µM (doses to about 46.1 µM), inactives show at the highest dose activity, positive = more growth; note: actives are rising curves; nearly all actives have a fitted effect of over 50% in size
#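 Growth recovery, yeast-based: influenza A NS1 expressed in S. cerevisiae causes slow growth, and suppressors are detected by OD600. The parent strain without NS1 is used as positive control.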
# * hit, by the source's call; u = inconclusive; x = no result given; & = joins results of further samples; ! = a repeat was not active; [ ] = remark or other dose. Unless noted, calls come from the whole dose curve; as a rule, active means well fitted rising curve with a large enough effect; inconclusive means small, poorly fitted or top-dose-only effect; inactive means no such curve, though single readings can be large or run the other way. Potency is the fitted concentration of half-maximal effect.
SMILES,Cruzain inh Det,Lassa entry inh,Cruzain noTriton,Marburg entry inh,SARS PLpro yeast,StopGo reporter,RE007 growth inh,NS1 function inh
O=C(O)c1ccc(NCc2nc3ccccc3n2Cc2ccccc2)cc1,x,-21%[46.1 µM],x,u,1%,-20%,-2%,-67%
O=C(Oc1ccccc1/C=C\C(=O)c1cc2ccccc2o1)c1cccc(F)c1,-3.8%,u,-16%,u,-7%,-60%,-6%,2%
Nc1nonc1OCCOCCOCCOc1nonc1N,x,12%,x,-15%[46.1 µM],-5%,13%,-6%,x
CC(NC(=O)c1cccc(F)c1)C1CC2CCC1C2 (centres undefined),x,18%[46.1 µM],x,3%[46.1 µM],x,8%,2%,x
COc1ccc(Nc2ccccc2NC(=O)c2ccccc2Br)cc1,x,2%,x,u,-3%,-29%,3%,-39%
N#Cc1cnn2c1nc(N1CCOCC1)c1ccccc12,4.0%,5%,7%,7%,-1%,5%,-11%,-7%
CC(C)CNC(=O)c1ccccc1-c1ccccc1C(=O)O,5.3%,2%,0%,u,5%,3%,18%,6%
COc1cc(NC(=O)COC(=O)/C=C/c2ccc(Cl)cc2Cl)cc(OC)c1,-5.6%,22%,-20%,u,17%,-25%,2%,5%
COc1cc2c(cc1OC)CN(C(=O)/C=C/c1cccc([N+](=O)[O-])c1)CC2,x,2%,x,-1%[46.1 µM],0%,-23%,3%,-20%
CCOc1cc(/C=N/NC(N)=S)cc(Br)c1OCc1ccccc1C,3.2µM*,u,1µM*,u,-1%,-30%,-2%,-8%
CN(C)C(CNc1ncnc2sccc12)c1cccs1 (centres undefined),x,x,x,x,5%,-5%,4%,-4%
FC(F)(F)c1cccc(N/N=C/c2ccccc2)c1,-4.2%,8%,19%,1%,-23%,35%[activator],5%,-20%
O=C1CC(c2ccccc2Cl)CC(O)=C1C=Nc1ccccc1 (centres undefined),-6.6%,u,2%,-15%,-12%,10%,u,-6%
O=C(NCc1cccs1)C1CCN(S(=O)(=O)c2ccc(Cl)cc2)CC1,x,-3%,x,-10%[46.1 µM],0%,-16%,5%,0%
COc1ccc(CNC(=O)c2c[nH]c3c(OC)cc(OC)cc3c2=O)cc1,x,x,x,x,2%,-2%,-10%,17%
CCc1nc(SCC(=O)c2cc(C)ccc2C)n[nH]1,u,-6%,-20%,6%,-1%,0%,0%,-9%
CCn1cc([N+](=O)[O-])c(C(=O)N2N=C(c3ccc(Cl)c(Cl)c3)CC2c2ccccc2O)n1 (centres undefined),x,-30%[46.1 µM],x,u,1%,-11%,21%,x
C=CCNCCOc1ccc(C)cc1[N+](=O)[O-],x,x,x,x,-1%,-8%,-4%,2%
COc1ccccc1N1CCN(CC(O)COc2cccc3ccccc23)CC1 (centres undefined),0.2%&6.3%,21µM*!,3%&10%,u,-6%&4%&5%,-17%&-19%,-9%&-15%[18.4 µM],-3%&-26%
CCCC(=O)n1nc(-c2ccc(C)cc2)nc1NCc1ccco1,x,-14%,x,u,-2%,60%[activator],-13%,0%
Cc1cccc(C(=O)n2c(=S)nc3cc(C)ccn32)c1,x,u,x,u,-2%,-70%,-13%,0%
COC(=O)c1cnc(SCc2ccc(C)cc2)n1C,x,-2%,x,-21%[46.1 µM],2%,18%,-7%,-4%
CCc1ccc(C(=O)CSc2nnc(C3CC3)n2C2CC2)cc1,x,-3%,x,8%,-11%,27%,23%,x
CCC(=O)N1CCc2cc(S(=O)(=O)N3CCc4ccccc4C3)ccc21,0.7%,-4%,21%,2%[46.1 µM],-1%,-16%,-9%,-24%
Cc1ccc2nc(NC(=O)CSc3nccn3-c3ccc(Cl)cc3)sc2c1,-0.1%,-8%[46.1 µM],-9%,x,x,6%,x,x
CCN(CC)c1ccc(NS(=O)(=O)c2ccc(-c3coc(C)n3)cc2)c(C)c1,-9.7%,u,-14%,x,x,-25%,x,x
N#Cc1nc(COc2ccccc2F)oc1NCCCn1ccnc1,4.0%,9%,2%,6%&6%,23%,16%,-4%,-7%
Cc1[nH]c(=O)[nH]c(=O)c1CSc1nnc([C@H](CC(C)C)NC(=O)OC(C)(C)C)o1,-3.4%,0%,-9%,-4%,-4%,-22%,3%,8%
CN(c1ccc(F)cc1)S(=O)(=O)c1ccc2[nH]cc(C(=O)O)c(=O)c2c1,-0.1%,18%,3%,-1%[46.1 µM],-1%,-5%,15%,-5%
COc1ccc(C(=O)N[C@H](C(=O)Nc2ccc(S(=O)(=O)N3CCOCC3)cc2)C(C)C)cc1,x,x,x,x,-4%,-6%,-3%,-3%
COCc1ccc([C@@H]2C[C@H]3CN(Cc4cccnc4)C(=O)[C@]34CCCN24)o1,x,x,x,x,0%,0%,1%,4%
Cc1ccccc1C(=O)N1CCC(C(=O)Oc2ccc(C#N)cc2)CC1,x,x,x,x,13%,u,8%,-1%
Cc1ccc(NC(=S)Nc2c(C)n(C)n(-c3ccccc3)c2=O)cc1,-0.1%,5%,-4%,u,0%,-3%,-11%,15%
CCc1ccccc1Oc1coc2cc(O)ccc2c1=O,x,x,x,x,-10%,6%,4%,-60%
CCOC(=O)C1(CCCc2ccccc2)CCN(C(=O)CCn2cncn2)CC1,x,10%,x,u,0%,-5%,6%,-3%
COc1ccc(CCC(=O)N(c2nnc(-c3cccnc3)s2)C(C)C)cc1,x,-5%,x,21%[46.1 µM],-1%,u,4%,-6%
Cc1ccc(Cl)cc1NC(=O)CC1Sc2ccccc2NC1=O (centres undefined),-1.6%,22%[46.1 µM],9%,-17%[46.1 µM],x,-7%,x,x
COc1cc(OC)cc(C(=O)N2CCN(c3ncccn3)CC2)c1,12%,-8%,9%,-4%,-2%,1%,6%,1%
Nc1c(N(CCC2=CCCCC2)C(=O)Cc2ccccc2F)c(=O)[nH]c(=O)n1Cc1ccccc1,x,u,x,u,1%,-13%,-1%,x
COC(=O)/C=C/c1ccc(-n2cncn2)cc1,x,27%[46.1 µM],x,12%[46.1 µM],-2%,13%,-2%,x
COc1ccccc1Cc1nc2ccccc2nc1SCC(=O)N1CCc2ccccc21,2.0%,12%[46.1 µM],-15%,x,x,-11%,x,x
CCCC(=O)NC(c1ccco1)c1cc(Cl)c2cccnc2c1O (centres undefined),-1.9%,u,14%,u,-28%,-4%,0%,-170%
CCN(CC)S(=O)(=O)c1ccc(C(=O)NCCN2C(=O)S/C(=C\c3cccnc3)C2=O)cc1,x,u,x,-6%,-2%,-2%,4%,x
COc1ccc(C(=O)NC(C)CCc2ccccc2)c(O)c1 (centres undefined),x,u,x,u,-12%,-25%,4%,-83%
Cc1ccc(C(=O)NNC(=O)c2cc(OCC(F)(F)F)ccc2OCC(F)(F)F)cc1,-1.8%,0%,0%,-7%,1%,38%[activator],-6%,-11%
Cn1c(=O)c2cc(S(=O)(=O)NC(C(=O)NC3CCCCC3)c3ccccc3)ccc2n(C)c1=O (centres undefined),2.9%,x,u,x,8%,-5%,13%,2%
CC(C)Nc1cc(N2CCN(C3CCCCC3)CC2)c2noc3c2c1C(=O)c1ccccc1-3,-0.3%,-2%[46.1 µM],-8%,0%[46.1 µM],x,-16%,x,x
COc1ccc(CN2CCC(C(=O)c3ccc(F)cc3)CC2)cc1,x,x,x,x,2%,-8%,-4%,-3%
CC(C)CC(=O)N[C@H](C(=O)N[C@H](C(=O)N[C@@H](CC(C)C)[C@@H](O)CC(=O)N[C@@H](C)C(=O)N[C@@H](CC(C)C)[C@@H](O)CC(=O)O)C(C)C)C(C)C,-1.1%&-6.2%,-1%,u,4%,-2%&7%,-19%,9%[18.4 µM],14%
CCCCn1c(N)c(NCCC(C)C)c(=O)[nH]c1=O,-2.5%,-2%,-1%,15%,6%,-21%,2%,-2%
# Next compounds
SMILES,Cruzain inh Det,Lassa entry inh,Cruzain noTriton,Marburg entry inh,SARS PLpro yeast,StopGo reporter,RE007 growth inh,NS1 function inh
C/C(=N\Nc1nc(N)cc(Cl)n1)c1ccc(Cl)c(Cl)c1,x,4%,x,-1%[46.1 µM],1%,-13%,-10%,x
CCN1C(=O)C2(C(C(=O)c3ccc(C)o3)=C(O)C(=O)N2CCCN2CCOCC2)c2ccccc21 (centres undefined),1.9%,-2%,2%,-8%,-1%,x,9%,1%
C[C@@H](CO)NC(=O)c1ccc2c3n(nc2c1)-c1ccc(Cl)cc1CO3,x,x,x,x,2%,13%,-7%,-3%
Cc1ccc(N2CCN(S(=O)(=O)c3nnc(NC(=O)c4cccc(F)c4)s3)CC2)cc1,-0.1%,10%[46.1 µM],-4%,x,x,-30%,x,x
Cc1ccc(NS(=O)(=O)c2cc(C(=O)Nc3cccc([N+](=O)[O-])c3)ccc2C)cc1,-6.3%,18µM*,11%,u,u,36%[activator],-15%,u
CCOc1ccc(N2C(=O)CC(N(CCc3ccc(OC)cc3)C(=O)c3cccc(F)c3)C2=O)cc1 (centres undefined),-2.4%,-21%,26%,u,3%,-6%,-1%,11%
Cc1csc(NS(=O)(=O)c2cccc([N+](=O)[O-])c2)n1,x,u,x,8%[46.1 µM],-1%,29%,7%,3%
CC(C)(C)c1ccc(-c2nc(C#N)c(N3CCC(C(N)=O)CC3)o2)cc1,x,u,x,u,-3%,5%,14%,7%
CCOc1ccc(S(=O)(=O)Nc2cccc(C(=O)N(C)Cc3cccc(OC)c3OC)c2)cc1,x,-19%,x,0%,3%,22%,1%,-1%
COc1ccc(N2CCN(C(=O)c3ccc(S(=O)(=O)N4CCCCCC4)cc3)CC2)cc1,x,-18%,x,10%,11%,7%,4%,x
O=C(NC1CCCCC1)c1ccccc1NC(=S)NC(=O)C1CCC1,1.9%,3%,-12%,u,24%,-18%,7%,20%
O=C(COc1ccccc1Cl)c1ccc[nH]1,x,u,x,u,-3%,20%,-20%,6%
COc1cccc(CCNc2ncnc3c2nnn3C)c1,0.1%,-1%[46.1 µM],-12%,x,x,-9%,x,x
CCN(C(=O)COC(=O)C12CC3CC(CC(NC(C)=O)(C3)C1)C2)C1CCCCC1,x,-14%,x,-19%,-2%,-7%,-11%,x
Cc1ccc(-c2noc(CN(C(=O)CCCN3C(=O)c4ccccc4C3=O)C(C)C)n2)cc1,x,-8%,x,u,x,0%,-6%,-44%
